Screens: PubChem, several laboratories
ALR H2O2 inh: human ALR oxidase inhibition via reduced H2O2; 290,000 tested, 3.8% active; inhibition, % (test concentration not listed); P55789; purified ALR, DTT oxidation, H2O2 HRP-luminol luminescence;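 active = mean and each replicate at 75% or more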;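 note: stock transfer was 7.5 nL into about 7.5 µL; 0% = neutral wells and 100% = wells with inactivated enzyme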
Target sequence (P55789 whole entry, looked up): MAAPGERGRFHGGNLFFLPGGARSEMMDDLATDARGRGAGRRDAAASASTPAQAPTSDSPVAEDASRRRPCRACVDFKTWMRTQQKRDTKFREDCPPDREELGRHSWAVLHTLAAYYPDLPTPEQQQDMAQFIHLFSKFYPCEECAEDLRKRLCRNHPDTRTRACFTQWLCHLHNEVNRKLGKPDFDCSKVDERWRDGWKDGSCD
UCH37 inh: blocks the human deubiquitinase UCH37 | Q9Y5K5 | purified proteasome/UCH37, Ub-AMC cleavage fluorescence | AID 588478 | 330,000 tested, 0.33% active | inhibition, % (no concentration beside the values);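 active = mean of two replicates above 20%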;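 note: 0% = compound-free wells with enzyme and 100% = wells lacking proteasome; stock transfer was 100 nL into about 20 µL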
Target sequence (Q9Y5K5 whole entry, looked up): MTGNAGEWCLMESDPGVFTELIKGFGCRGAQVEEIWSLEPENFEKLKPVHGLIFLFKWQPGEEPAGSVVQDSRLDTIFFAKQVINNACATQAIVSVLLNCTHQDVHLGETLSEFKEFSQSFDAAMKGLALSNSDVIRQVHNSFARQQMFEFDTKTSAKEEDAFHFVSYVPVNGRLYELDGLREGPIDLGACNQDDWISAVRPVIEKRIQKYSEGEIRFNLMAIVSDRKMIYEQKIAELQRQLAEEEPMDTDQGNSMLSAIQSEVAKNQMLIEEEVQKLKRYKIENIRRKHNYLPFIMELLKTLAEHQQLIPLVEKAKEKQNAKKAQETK
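Test system – human UCH37 enzyme supplied as purified proteasome complex · Incubation – 30 min preincubation with enzyme, 25 min cleavage at room temperature · Detection – AMC fluorescence from Ub-AMC cleavage, excitation 355 nm, emission 460 nm · Benchmarks – no-proteasome wells (full inhibition) and compound-free wells (no inhibition)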
HNF4A DNA FP: change in binding of human HNF4 alpha to DNA; P41235; HNF4a-FITC DNA binding, fluorescence polarization, 1 h; activity change, % at 10 µM; AID 1224865; 360,000 tested, 0.3% active; in the data active = activity change above about 30%, passing the limit was not always enough;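 note: controls were the assay level and a saturating level of protein; the project sought stronger binding though the title names inhibitors; some compounds called inactive have numbers as strong as hits; positive values seem to mean higher polarization but the record does not say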
Target sequence (P41235 whole entry, looked up): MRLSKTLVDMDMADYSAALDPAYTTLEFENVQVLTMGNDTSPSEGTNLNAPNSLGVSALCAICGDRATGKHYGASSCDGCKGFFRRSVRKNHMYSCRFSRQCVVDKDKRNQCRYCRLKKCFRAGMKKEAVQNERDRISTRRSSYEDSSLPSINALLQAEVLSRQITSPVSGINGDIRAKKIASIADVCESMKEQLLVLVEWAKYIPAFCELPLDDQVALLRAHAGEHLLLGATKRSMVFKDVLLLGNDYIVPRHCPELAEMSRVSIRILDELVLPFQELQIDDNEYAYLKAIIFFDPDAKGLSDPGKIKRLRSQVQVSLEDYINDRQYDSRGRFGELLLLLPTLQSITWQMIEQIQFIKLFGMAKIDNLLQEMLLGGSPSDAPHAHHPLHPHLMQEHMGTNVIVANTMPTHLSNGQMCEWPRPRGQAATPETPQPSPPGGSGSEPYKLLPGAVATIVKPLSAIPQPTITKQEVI
E coli growth: inhibitors of Escherichia coli growth. OD600, 23 h; hits give low values. OD600 absorbance (test concentration not listed). 330,000 tested, 0.21% active;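 active = OD600 absorbance below the run mean of sample wells minus 3.6 SD, in any replicate, cut at about 0.56 in these data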;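 note: stock transfer was 300 nL into about 60 µL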
Beta2AR agonist: human beta-2 adrenergic receptor agonism by FAP; P07550; Am2.2-beta2AR cells, FAP receptor internalization, flow cytometry; reference of the scale not given here; response, % (test concentration not listed); 340,000 tested, 0.43% active; AID 504454;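 active = response above a set limit, near 3 SD of response in nonfluorescent compounds, cut at about 42% in these data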;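 note: stock transfer was 100 nL into about 11 µL; a reference agonist was the positive control; negative values mostly stem from fluorescent compounds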
Ecoli rRNA inh: selective bacterial rRNA inhibition in E. coli; 350,000 tested, 1.6% active; AID 720706; GFP signal change (wild-type ribosome), % (test concentration not listed); E. coli WT GFP vs humanized-ribosome RFP mutants, fluorescence, 24 h; hits give low values; DMSO median 0, no signal -100;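 active = significant combined selectivity score with lowered wild-type GFP, culture density cut under 30%, mutant RFP and density less affected; inactive = any of these conditions unmet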; note: one replicate is shown; some compounds called inactive have numbers as strong as hits
FGF22 binding: binders of recombinant human FGF22 by thermal shift; 340,000 tested, 1.5% active; SYPRO orange fluorescence; percent of sucrose octasulfate shift, DMSO zero; AID 651658; Q9HCT0; calls only at 9.99 µM;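 active = melting point raised past a set limit in the mean and every replicate; three in four hits are not shown here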
Ecoli rRNA inh OD600: recorded beside Ecoli rRNA inh, whose call it bears; OD600 change, %; measured here: OD600 growth;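 optical density of the mix in the first replicate; 0 = DMSO median and -100 = no signal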
Ecoli rRNA inh RFP: second read-out of Ecoli rRNA inh, no call of its own (marks repeat the call); RFP signal change, %; measured here: RFP humanized mutant strains;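 first replicate; 0 = DMSO median and -100 = no signal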
* = called active by the depositor; i = inactive; nt = no result given.

SMILES | ALR H2O2 inh | UCH37 inh | HNF4A DNA FP | E coli growth | Beta2AR agonist | Ecoli rRNA inh | Ecoli rRNA inh OD600 | Ecoli rRNA inh RFP | FGF22 binding
COc1ccccc1CCNC(=O)c1ccc(C)o1 | -3.1 | 0.0 | -2.2 | 0.703 | 2.2 | -5.2 | -3.4 | 1.8 | i
O=C(NCC(=O)N1CCCC(C(F)(F)F)C1)c1ccco1 (stereo unspecified) | -5.6 | 1.0 | -2.8 | 0.689 | -5.3 | 8.1 | 5.8 | -0.3 | i
Cc1cc2oc(=O)cc(CN3CCC(C)CC3)c2cc1Cl | nt | 0.1 | -3.4 | 0.72 | -19.4 | nt | nt | nt | nt
c1ccc(Sc2cnc3ccccc3n2)cc1 | -4.7 | 0.9 | 2.7 | 0.695 | -5.8 | nt | nt | nt | nt
COc1ccc(NC(=O)CSc2nc3c([nH]c4ccccc43)c(=O)n2C)c(OC)c1 | -0.9 | -17.3 | 3.3 | 0.699 | 0.4 | 11.7 | 14.5 | -1.5 | i
Brc1ccc(C2=Nn3c(nnc3-c3n[nH]c4c3CCC4)SC2)cc1 | -5.0 | nt | 0.2 | 0.69 | 34.5 | nt | nt | nt | nt
CCCCNC(=S)NC1CCCC1 | nt | -1.7 | -1.3 | 0.732 | -2.3 | nt | nt | nt | nt
O=C(COC(=O)c1cc(=O)[nH]c2ccccc12)c1ccccc1 | 2.2 | -10.1 | 1.4 | 0.717 | 1.5 | 2.8 | -9.0 | -1.1 | i
COc1ccc(C(=O)N2CCC(C)(C(=O)NS(=O)(=O)C3CC3)C2)c(OC)c1 (stereo unspecified) | nt | nt | 3.6 | nt | nt | 23.2 | 28.3 | 1.3 | i
COCCN1Cc2cccc(C(=O)Nc3cccnc3)c2C1=O | -16.4 | -1.9 | -0.5 | 0.68 | 4.2 | nt | nt | nt | nt
O=C(O)c1cccc(N2C(=O)c3ccc(Oc4ccc(Cl)cc4)cc3C2=O)c1 | -2.0 | 5.8 | 2.8 | 0.694 | -7.0 | -36.2* | -27.8* | -7.1* | i
CCCn1nc2cc(C(=O)NCc3ccc4c(c3)OCO4)ccc2c1OCC | -9.7 | -63.2 | -2.1 | 0.657 | -1.3 | -11.4 | -9.7 | 0.9 | i
COc1cc(OC)cc(C(=O)N2CCN(C3CCC(C)CC3)CC2)c1 (stereo unspecified) | nt | nt | 0.7 | nt | 2.7 | 2.1 | 2.3 | 2.2 | i
COc1cc(/C=C2\SC(=O)NC2=O)ccc1Oc1ccc([N+](=O)[O-])cc1[N+](=O)[O-] | 98.0* | 3.0 | -3.7 | 0.679 | 4.7 | 6.9 | 8.4 | 5.3 | i
Cc1ccc(OCC(=O)N2CCCC(CO)(CCOc3ccccc3)C2)cc1 (stereo unspecified) | -7.0 | 1.5 | 2.2 | 0.708 | -0.3 | -3.3 | -22.9 | 1.9 | i
CN(C)/C=N/c1nc2nccc(-c3ccc(Cl)cc3)n2n1 | 0.5 | nt | 2.8 | nt | -11.2 | 12.4 | 6.0 | 2.0 | i
O=C(NC(C(=O)N/N=C/c1ccncc1)c1n[nH]c(=O)c2ccccc12)c1ccccc1 (stereo unspecified) | -0.8 | nt | -2.7 | nt | -23.9 | 3.7 | 3.8 | 0.1 | i
COc1ccccc1C(=O)NCC(=O)OCCCOC(=O)CNC(=O)c1ccccc1OC | -4.1 | 3.6 | 0.3 | 0.695 | 2.3 | 9.2 | 12.5 | 0.5 | i
CC(C)Cn1c(N)c(C=O)c(=O)n(C)c1=O | 99.7* | -1.0 | -4.0 | 0.694 | 0.6 | 4.8 | 8.6 | -0.9 | i
O=C(NC1CC1)c1nc(Cn2cc([N+](=O)[O-])cn2)no1 | -13.7 | -3.1 | -0.9 | 0.719 | 2.3 | 0.9 | 1.0 | 1.2 | i
COc1ccc(COC(=O)C2CCN(S(=O)(=O)c3cccs3)CC2)cc1 | nt | 3.2 | -0.7 | 0.652 | -0.5 | -3.6 | -11.9 | 1.0 | i
O=C(O)c1cc(NCc2ccc3c(c2)OCO3)ccc1N1CCOCC1 | 79.0* | -6.7 | -3.8 | 0.729 | 0.2 | nt | nt | nt | nt
COc1cccc(C2=NOC(C(=O)NCc3ccccc3)C2)c1 (stereo unspecified) | -13.4 | -2.9 | -0.2 | 0.658 | 19.8 | nt | nt | nt | nt
CN(C)C(=O)c1ccc(COc2ccccc2Br)o1 | -2.6 | -2.9 | -1.8 | 0.663 | -0.1 | nt | nt | nt | nt
COc1ccc(NS(=O)(=O)c2cn(C)c(=O)n(C)c2=O)cc1 | -5.4 | 2.6 | -2.4 | 0.692 | -4.2 | 8.2 | 3.4 | -5.4 | i
COC(=O)c1ccccc1NC(=O)CSc1nc(Nc2ccccc2)nc(N2CCOCC2)n1 | -11.6 | 0.2 | 0.3 | 0.733 | -14.2 | 0.0 | 9.3 | 6.1 | i
CC(C)C1(c2ccsc2)NC(=O)NC1=O (stereo unspecified) | nt | nt | -0.3 | nt | -9.6 | 2.9 | 0.0 | -1.3 | i
CC(CCc1ccccc1)NC(=O)COC(=O)C(CCC(N)=O)NC(=O)c1ccc(F)cc1 (stereo unspecified) | -3.0 | 3.3 | 1.3 | 0.706 | -9.8 | nt | nt | nt | i
COc1ccc(NC(=O)Nc2ccc3c(c2)C(=O)N([C@H](C)CO)C[C@H](C)[C@H](CN(C)Cc2ccc(C(=O)O)cc2)OCCCC[C@@H](C)O3)cc1 | nt | nt | 2.8 | nt | nt | 4.0 | 4.4 | 0.3 | i
Oc1c(C=NCc2ccncc2)sc2ccccc12 | 83.4* | 0.0 | nt | 0.737 | nt | nt | nt | nt | nt

Just ALR H2O2 inh, for some of the entries so far:
Structure	ALR H2O2 inh
O=C(O)c1cc(NCc2ccc3c(c2)OCO3)ccc1N1CCOCC1	79.0*
COc1cccc(C2=NOC(C(=O)NCc3ccccc3)C2)c1 (stereo unspecified)	-13.4
CN(C)C(=O)c1ccc(COc2ccccc2Br)o1	-2.6

(more compounds)
SMILES | ALR H2O2 inh | UCH37 inh | HNF4A DNA FP | E coli growth | Beta2AR agonist | Ecoli rRNA inh | Ecoli rRNA inh OD600 | Ecoli rRNA inh RFP | FGF22 binding
Nc1c(C(=O)Nc2ccc3c(c2)OCCO3)nnn1Cc1ccccc1 | -23.5 | 4.2 | -0.2 | 0.702 | -0.5 | -13.0 | -13.0 | 3.8 | i
CCCCCn1c(Sc2nc3ccccc3s2)nc2c1c(=O)[nH]c(=O)n2C | -13.6 | 1.3 | 1.8 | 0.717 | -6.7 | 5.6 | 3.6 | 3.4 | i
NC(=O)Cc1nc(-c2ccc([N+](=O)[O-])cc2)cs1 | -5.1 | 9.7 | -0.6 | 0.663 | 15.7 | -14.8 | 2.6 | -5.4 | nt
COc1ccccc1NC(=O)Nc1cccc(C(=O)O)c1 | -20.5 | 4.4 | 2.0 | 0.703 | 5.2 | 10.4 | 3.9 | -1.8 | nt
Cc1ccc(/C=N/NC(=O)Cn2ccc(C(F)(F)F)n2)o1 | -5.5 | nt | -0.9 | nt | 0.0 | -2.0 | 6.0 | -3.6 | i
O=C(Nc1nccs1)c1ccc(COc2ccccc2Br)o1 | 3.9 | -0.2 | -1.0 | 0.732 | -8.1 | nt | nt | nt | nt
COc1cccc([C@@H]2CC=C(C(=O)O)[C@H](c3ccccc3)N2S(=O)(=O)c2ccc(C)cc2)c1 | 2.5 | 1.1 | -2.1 | nt | 8.4 | -2.3 | 0.2 | 0.7 | i
CC(C)=CCC/C(C)=C/CNC(=O)C[C@H]1C[C@H](C(=O)N(C(C)C)C(C)C)[C@@]2(C)c3[nH]c4cc(-c5ccco5)ccc4c3CCN2C1=O | nt | -14.8 | 4.1 | 0.735 | -4.5 | nt | nt | nt | i
O=C(O)C1=NN(c2ccccc2)C(=O)C1 | 2.3 | 4.0 | -2.6 | 0.69 | -1.9 | 10.0 | -0.7 | -5.8 | i
COCCN(C(=O)CSc1nnc(C)n1Cc1ccccc1)c1c(N)n(CC(C)C)c(=O)[nH]c1=O | -29.9 | 2.3 | 3.2 | 0.691 | -0.5 | 15.6 | 2.3 | 1.1 | i
COc1ccccc1CC(=O)O/N=C(\N)Cc1cccc2ccccc12 | -6.5 | 6.8 | 11.8 | 0.7 | 2.4 | nt | nt | nt | nt
CC(C)c1ccc(CN2CC(C(=O)O)CC2=O)cc1 (stereo unspecified) | 3.6 | 1.1 | 0.3 | 0.657 | 8.0 | -6.3 | 12.8 | 7.9 | i
CCC(=O)c1ccc(OC)c(OC)c1OCc1ccccc1 | nt | nt | -0.6 | nt | -14.8 | -16.1 | -21.2 | -2.7 | i
Cc1c(NS(=O)(=O)c2ccc(NC(=O)CCC(=O)O)cc2)c(=O)n(-c2ccccc2)n1C | 8.8 | 0.6 | 3.5 | 0.675 | -6.2 | 11.7 | 9.3 | -3.4 | i
CN(C)CCNC(=O)c1onc(CSc2nc3ccccc3[nH]2)c1C(=O)NCCN(C)C | -1.5 | -0.3 | 0.3 | 0.643 | -12.3 | 11.0 | 9.3 | -9.9 | i
COC(=O)C(NC(C)=O)(Nc1ccccc1)C(=O)OC | -4.3 | -0.4 | -0.3 | 0.677 | 7.7 | nt | nt | nt | nt
CCN1C[C@@H]2[C@@H]3C(=O)N(C)C(=O)[C@@H]3[C@](CC)(C1=O)N2C(=O)c1ccc(Cl)cc1 | nt | 1.2 | -1.8 | nt | -4.9 | 1.8 | 3.9 | -7.0 | i
CC(C)c1ccc(N(CC(=O)N2CCN(Cc3ccccc3)CC2)S(C)(=O)=O)cc1 | 2.5 | nt | -6.1 | nt | -6.7 | -9.3 | -12.6 | 3.7 | i
Cn1c(=NC(=O)C2=NNC(=O)CC2)sc2ccccc21 | 40.2 | 13.6 | 1.9 | 0.674 | -12.7 | -8.8 | -7.0 | -2.9 | i
Cc1ccc(C(O)P(=O)(OCCC(C)C)c2ccc(N(C)C)cc2)cc1 (stereo unspecified) | -2.7 | 3.7 | -3.7 | 0.672 | 2.9 | -3.8 | -15.3 | 3.2 | i
Clc1ccc(CSc2nnc(-c3cccnc3)n2Cc2ccco2)c(Cl)c1 | 97.0* | -0.2 | 12.4 | 0.705 | -17.1 | nt | nt | nt | nt
COc1ccc(CCn2c(-n3nc(C)cc3C)nc3c2c(=O)[nH]c(=O)n3C)cc1 | -0.5 | 1.2 | -0.9 | 0.757 | 5.8 | nt | nt | nt | nt
C[C@H](NS(=O)(=O)c1ccc(Cl)cc1)C(=O)OCC(=O)Nc1cc(S(=O)(=O)N2CCOCC2)ccc1Cl | nt | 2.9 | 4.9 | 0.692 | 1.0 | 5.2 | 9.5 | -1.6 | i
O=C(NC1CCCC1)c1cc(S(=O)(=O)N2CCCC2)ccc1Cl | 1.4 | 0.2 | -1.4 | 0.645 | -7.8 | 1.2 | 5.8 | -0.2 | i
CC(=O)Nc1ccc(-c2csc(Nc3ncccn3)n2)cc1 | -6.2 | nt | -1.7 | nt | -3.3 | 6.3 | 6.5 | -3.4 | i
COC(=O)c1cc(S(=O)(=O)Nc2cc(OC)cc(OC)c2)c[nH]1 | 0.2 | -1.7 | 0.3 | 0.652 | 2.3 | -3.6 | -15.8 | 6.5 | i
C=CCNC(=S)N(C1CCCCC1)C1CCCCC1 | -0.3 | -0.3 | -8.4 | 0.69 | -2.0 | 11.4 | 6.9 | -2.6 | i

These rows are one share of the data; count on the stated rates, not on these rows.
